High-throughput results (PubChem BioAssay)
gsp antag: antagonizes gsp, the McCune-Albright syndrome mutation. hit rate 0.4% among 340,000. AID 624288. Potency, µM (series often up to 76.9 µM), without a hit: at the highest dose activity change, negative = inhibition, actives largely listed as inhibitors. gsp-mutant cells, cAMP HTRF, 30 min; control for the full effect not named in the record; active = falling curve of any shape with a large fitted effect; inconclusive = falling curve, mostly with a smaller effect; inactive = flat or rising curve; cell line not stated here;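 further: intracellular cAMP measured with PDE inhibitor Ro 20-1724 present during compound exposure; potency means the concentration at half of the fitted maximal effect; on the % scale 0 is the no-effect control and ±100 the full control effect; nearly all actives have a fitted effect of over 65% in size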
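Cells, 2000/well, grown 16–24 h in DMEM 10% FBS with 0.5 mg/ml G418, then compounds plus […] (300 uM addition stock), 30 min at 37C. cAMP read by HTRF (cAMP-d2 and anti-cAMP antibody-K in lysis buffer) after 30 min RT.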
TRPML1 ag: human mucolipin-1 channel agonism. TRPML1-expressing cells, Ca2+ dye fluorescence, FDSS; host cell line not named in the record; reference of the full effect not given here. activation, % (no concentration beside the values). AID 624414. Q9GZU1. hit rate 0.12% among 410,000; in the data active = activation above about 50%; inconclusive = about 30% to 50%; inactive = below about 30%; further: 0% is about no effect; the text of the record puts the active cut at 80%
Target sequence (Q9GZU1 whole entry, looked up): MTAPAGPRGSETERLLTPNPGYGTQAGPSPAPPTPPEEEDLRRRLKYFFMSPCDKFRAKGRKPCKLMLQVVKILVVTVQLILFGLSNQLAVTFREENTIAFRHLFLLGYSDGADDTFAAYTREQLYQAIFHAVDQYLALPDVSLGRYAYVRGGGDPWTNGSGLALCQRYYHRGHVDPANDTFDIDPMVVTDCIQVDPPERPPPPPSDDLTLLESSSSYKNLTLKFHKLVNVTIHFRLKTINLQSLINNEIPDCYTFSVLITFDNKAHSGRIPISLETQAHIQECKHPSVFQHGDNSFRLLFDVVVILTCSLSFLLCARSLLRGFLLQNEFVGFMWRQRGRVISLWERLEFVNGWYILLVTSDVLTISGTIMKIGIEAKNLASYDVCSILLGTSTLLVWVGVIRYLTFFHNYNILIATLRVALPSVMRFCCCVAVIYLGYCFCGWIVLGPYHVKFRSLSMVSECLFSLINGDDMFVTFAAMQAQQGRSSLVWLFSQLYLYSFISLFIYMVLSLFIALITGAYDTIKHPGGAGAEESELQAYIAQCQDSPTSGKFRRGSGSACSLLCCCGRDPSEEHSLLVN
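Kinetic FDSS Ca2+ read in Tet-induced TRPML1-DL cells (ABD Ca8 dye plus quencher, 45-90 min RT loading): baseline, then compound, then 110 s agonist window; EC80 agonist 54-4 at 4uM final added afterwards for a 110 s antagonist window.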
ClpP mod: qHTS Assay for Activators of ClpP. purified B. subtilis ClpP, FRET peptide cleavage, 20 min. Potency, µM (series often up to 57.5 µM), for inactives: at the top dose activity change, negative = active. hit rate 1.9% among 340,000; active = well fitted falling curve with a large enough effect; inconclusive = small, poorly fitted or top-dose-only effect; inactive = no such curve, though single readings can be large or run the other way; further: potency means the concentration at half of the fitted maximal effect; the source files actives as falling curves though it sought activators and does not explain the sign; nearly all actives have a fitted effect of over 65% in size; many hits overshoot -100%
Target sequence (P80244 whole entry, looked up): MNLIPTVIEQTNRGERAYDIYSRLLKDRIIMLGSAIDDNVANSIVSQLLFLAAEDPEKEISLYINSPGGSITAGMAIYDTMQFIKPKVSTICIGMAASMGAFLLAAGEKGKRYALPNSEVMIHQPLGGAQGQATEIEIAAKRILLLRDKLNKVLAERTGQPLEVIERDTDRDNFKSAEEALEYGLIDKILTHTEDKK
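FRET quenching reversal measured ClpP activation: 10 microg/mL B. subtilis ClpP at pH 8 with the FRET-FV decapeptide, read at 430 nm after 320 nm excitation. The 20-min minus 0-min signal was scaled between DMSO/no-enzyme wells and ADEP (5.8 microM final).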
TRPML1 inh: inhibitors of human TRPML1 channel; AID 624415; activity change, negative = inhibition, % (no concentration beside the values); TRPML1-inducible cells, Ca2+ dye fluorescence, FDSS; stronger effect = lower value; inhibition of EC80 agonist-evoked calcium signal; hit rate 0.02% among 390,000; Q9GZU1; in the data active means activity change below about -50%; inconclusive means about -30% to -50%; inactive means above about -30%;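 further: stimulus is agonist 54-4 at its EC80 concentration; on the % scale 0 is the no-effect control and ±100 the full control effect; compound concentration not given in the record; the text of the record puts the active cut at -80%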
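Tet-induced TRPML1-DL cells loaded with Ca8 no-wash calcium dye were read kinetically on FDSS. Compound addition was followed by EC80 agonist 54-4 (4 uM final); inhibition was read over 110 s.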
Menin MLL FP FL: inhibitors of human menin-MLL interaction, wild-type MLL peptide; FP activity change, % at 61.4 µM; 290,000 tested, under 10 active; AID 1766; Fluorescence polarization, fluorescein-MLL peptide displacement from menin; inconclusive = falling polarisation curve, or a change in total fluorescence; inactive = total fluorescence flat and polarisation flat or rising; no compound was filed as active; the % refers to the polarisation; negative = inhibition;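 further: % of control where 0% means no effect; inhibitors lower the polarisation; unlabelled MLL peptide was the positive control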
gsp agonist: activates gsp, the McCune-Albright syndrome mutation. Potency, µM (series often up to 76.9 µM), without a hit: at the highest dose activation (cAMP increase), usual class: activators. hit rate 0.13% among 340,000. AID 624287. gsp mutant cells, cAMP HTRF, 30 min; control for the full effect not named in the record; active = well fitted activation curve with a large enough effect; inconclusive = small, poorly fitted or top-dose-only effect, or another doubt; inactive = no such curve, though single readings can be large or run the other way; cell line not stated here;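 further: phosphodiesterase inhibitor Ro 20-1724 added with compounds to block cAMP breakdown; potency means the concentration at half of the fitted maximal effect; nearly all actives have a fitted effect of over 60% in size; about a fifth of the inactives were tested at one dose only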
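Cells in DMEM/10% FBS with G418 were pretreated with compounds in DMSO plus […] (300 uM stock) for 30 min at 37C. cAMP was measured by HTRF (cAMP-d2 plus anti-cAMP antibody-K) after 30 min at room temperature.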
The depositor's hits bear a star; ? = inconclusive; . = no result given; & = joins results of further samples; [ ] = remark or other dose. Compounds as they come. Share with any hit: about 2.1%.

The line under a structure holds: gsp antag	TRPML1 ag	ClpP mod	TRPML1 inh	Menin MLL FP FL	gsp agonist
> CCN(CC(=O)NCc1ccc(F)cc1)CC(=O)Nc1ccc(S(=O)(=O)N2CCCC2)cc1
    -9.9%	-0.7	0.3%	4.2	0.6	2.9%[15.4 µM]
> Cc1ccc(-n2c(Cc3cccn3C)nnc2SCC(=O)Nc2ccc3c(c2)OCO3)cc1
    ?	2.6	-0.4%	25.9	0.0	-17.2%
> CC(=O)c1cccc(NC(=O)c2noc3c2CSc2ccccc2-3)c1
    .	-0.3	-3.7%	-5.9	.	.
> COc1ccc(S(=O)(=O)N(C)C[C@H]2Oc3ccc(NC(=O)Nc4ccc5c(c4)OCO5)cc3CC(=O)N([C@@H](C)CO)C[C@@H]2C)cc1
    -3.1%	-0.6	-1.8%	-0.3	.	.
> O=C(CSc1n[nH]c(-c2ccccc2)n1)c1ccc(O)c(O)c1
    -17.4%	1.8	0.1%	-9.9	0.6	2.4%
> Nc1[nH][nH]c(=O)c1N=Nc1ccc2c(c1)OCO2
    ?	0.4	.	16.0	-2.1	12.7%
> CCCN1C(=O)c2cc(C(=O)Nc3ccccc3OC)ccc2C1Nc1ccccc1OC (centres undefined)
    -25.7%	2.4	.	16.8	3.3	7.6%[15.4 µM]
> O=C(CCN1CCC2CCC(C2)C1)c1ccc(F)cc1 (centres undefined)
    18.7%	0.3	-0.2%	4.8	.	2.5%[15.4 µM]
> Cc1c(Cl)cccc1NS(=O)(=O)c1ccc(NS(=O)(=O)c2ccc3c(c2)OCCO3)cc1
    .	17.2	1.5%	-9.2	.	.
> O=C(Cc1ccccc1)NN1C(=O)/C(=C/c2ccccc2C(=O)O)SC1=S
    4.8%	1.0	-1.0%	13.7	4.7	?
> O=[N+]([O-])c1ccccc1S(=O)(=O)Nc1ncccn1
    9.6%	2.7	-3.8%	-14.7	2.2	?
> CC1(C)Cc2cccc(OCC(=O)OCC(=O)NCc3ccccc3)c2O1
    3.4%	1.7	-1.8%	-15.4	-6.5	29.1%
> NC(=O)C1CCN(S(=O)(=O)c2cccc(S(=O)(=O)N3CCCCC3)c2)CC1
    -16.1%	-0.2	-2.2%	0.3	2.4	0.6%
> CC(C)[N+]1(C)[C@@H]2CC[C@H]1CC(OC(=O)C(CO)c1ccccc1)C2 (some centres undefined)
    0.7%&2.7%&4.0%	-0.2&0.0&-0.4	1.4%&-15.7%&3.2%	-7.1&-2.6&15.7	?	.
> O=C(CSc1ncn[nH]1)c1ccco1
    16.8%	-0.8	0.9%	-6.7	-1.4	3.9%

New compounds follow:
The line under a structure holds: gsp antag	TRPML1 ag	ClpP mod	TRPML1 inh	Menin MLL FP FL	gsp agonist
> CCCn1nnnc1NCc1cccc(OC)c1OC
    8.9%	0.7	1.1%	-4.1	0.9	-1.9%[15.4 µM]
> O=C(c1cc2ccccc2[nH]1)N(Cc1cccnc1)CC1CCCN(C2CCCCC2)C1 (centres undefined)
    -0.2%	-0.4	-12.5%	10.5	.	-1.1%
> O=C(Nc1ccc(-c2nc3ccccc3o2)cc1)C1CCCO1 (centres undefined)
    -16.3%	1.7	15.8µM*	12.5	-3.0	13.0%
> COc1ccc(NC2CCCN(C(=O)c3csc(C(C)C)n3)C2)cc1 (centres undefined)
    -1.4%	0.4	2.2%	-27.8	0.2	-9.1%
> CC(C)C(=O)NC(=S)NCC(=O)c1ccccc1
    -2.2%	-0.2	-2.3%	4.4	6.9	-23.7%
> O=S(=O)(c1ccc(F)cc1)N(CC(O)Cn1c2ccccc2c2ccccc21)c1ccccc1 (centres undefined)
    .	1.0	?	5.7	.	.
> Cc1ccc(NC(=O)CCNC(=O)c2ccccc2Cl)cc1S(=O)(=O)N1CCCCCC1
    -14.3%	0.2	-0.8%	-0.9	.	-7.0%
> Cc1cccc(N2C(=O)C(Cc3ccccc3)NC2=S)c1 (centres undefined)
    -15.4%	3.4	0.5%	0.8	1.1	18.1%
> COc1cccc(Cn2c(NCc3ccc(C)cc3)nc3c2c(=O)n(C)c(=O)n3C)c1
    .	-0.3	3.7%	5.4	.	.
> CC(=O)Nc1c(-c2ccccc2Cl)c(=O)c2ccccc2n1C
    -0.6%	0.0	-16.4%	2.4	-2.9	1.5%
> CC(=O)Nn1c(-c2ccccc2)cc2ccccc21
    -2.1%	-0.4	14.1µM*	-4.4	0.3	-0.3%
> CC1(c2ccc([N+](=O)[O-])c(CS(=O)(=O)c3ccccc3)c2)OCCO1
    1.3%	-0.8	.	-7.3	-4.3	13.5%[15.4 µM]
> NC(=O)C1CCCN(Cc2ccc3ccccc3c2)C1 (centres undefined)
    4.7%	-0.8	-1.8%	7.4	-6.6	-31.1%[inhibitor]
> Cc1cc(N/C=C(\C#N)S(=O)(=O)c2ccc(Cl)cc2)nc(C)n1
    -6.0%	0.0	1.5%	5.8	-1.6	3.1%[15.4 µM]
> COc1ccc(CC(=O)Nc2nc(C)cs2)cc1OC
    -16.3%	-0.9	0.0%	6.4	1.8	-25.8%

(continued)
The line under a structure holds: gsp antag	TRPML1 ag	ClpP mod	TRPML1 inh	Menin MLL FP FL	gsp agonist
> COCCN(C(=O)C1CCCC1)c1c(N)n(Cc2ccccc2)c(=O)[nH]c1=O
    9.0%	0.2	-3.3%	-4.7	7.8	2.0%
> CSc1cccc(NC(=O)c2cnccn2)c1
    -0.7%	0.4	-17.0%	1.7	3.0	3.9%
> C/C(=N\NC(=O)C12CCC(C)(C(=O)O1)C2(C)C)c1ccccc1O (centres undefined)
    10.2%	.	-0.8%	.	-1.6	-34.4%
> COC(=O)c1cccc(NC(=O)CCN2C(=O)C3CC=CCC3C2=O)c1 (centres undefined)
    8.6%	-0.4	1.2%	18.1	.	17.8%
> Cn1cc(/C=C/C(=O)N2CCCC(C(=O)c3cccc4ccccc34)C2)cn1 (centres undefined)
    -5.5%	0.7	0.4%	5.4	0.1	-26.1%
> COc1ccc(C(=O)N2N=C(c3cccs3)CC2c2ccccc2O)cc1 (centres undefined)
    -26.4%	0.9	.	2.6	.	-10.2%
> O=C(N/N=C/c1cccnc1)c1cc2c(ccc3ccccc32)o1
    -5.9%	-0.2	-7.3%	-6.6	3.0	-1.1%
> Cc1ccc(NC(=O)CCn2nnc3ccccc32)c(C)c1
    9.0%	1.9	.	26.6	1.5	15.6%[15.4 µM]
> COc1cc2sc3ccc(-c4ccc(N(C)C)nc4)cc3c(=O)c2cc1OC
    -2.3%	-0.8	-4.5%	13.7	.	.
> Cc1ccc(C(=O)Nc2ccccc2N2CCOCC2)cc1S(=O)(=O)N1CCOCC1
    5.9%	0.1	-1.2%	12.8	.	-32.3%[inhibitor]
> Cc1ccc(NC(=O)CNCC2CCCCC2)cc1S(=O)(=O)N(C)C
    4.6%	0.1	1.4%	11.9	2.8	-3.0%
> CC(=O)Nc1ccc(Oc2nc(-c3ccccn3)nc3ccccc23)cc1
    -14.7%	0.2	-6.2%	43.9	2.4	6.4%[15.4 µM]
> CC(=O)c1cccc(NC(=S)Nc2ccc(F)cc2)c1
    4.4%	-0.6	-2.6%	0.7	0.4	2.6%
> Cc1ccc(CNC(=O)CSc2nc(=O)n3cccc(C)c3n2)cc1
    1.9%	-0.1	-14.7%	-7.6	.	?
> CCCCCOCC1CC(C/C(C)=N/NC(N)=O)(C(=O)OCC)C(=O)O1 (centres undefined)
    5.3%	-0.6	0.2%	-9.0	5.6	-0.1%

Later entries.
The line under a structure holds: gsp antag	TRPML1 ag	ClpP mod	TRPML1 inh	Menin MLL FP FL	gsp agonist
> CCOc1ccc(S(=O)(=O)NC2CCCCCC2)cc1
    -7.9%	-0.2	-4.3%	-6.8	3.5	5.5%
> CCCCOCCOCCOCCCC
    2.5%	-0.6	-0.5%	0.8	.	.
> CCc1cc(=O)oc2c(C)c(OCC(=O)NCCN3CCOCC3)ccc12
    3.6%	0.3	3.5%	-4.3	0.1	-4.8%
> CCCC(=O)NC(c1cccc([N+](=O)[O-])c1)c1ccc2cccnc2c1O (centres undefined)
    .	-1.0	1.9%	12.1	.	-43.1%[inhibitor]
> COc1cccc(Cn2nc3c4cc(F)ccc4n(Cc4ccc(F)cc4)cc-3c2=O)c1
    8.7%	-0.3	.	4.4	0.8	-81.9%[inhibitor]
> COCCn1c(C)cc(C(=O)CSc2nncn2-c2ccccc2)c1C
    6.1%	-1.0	0.0%	2.3	-1.2	1.7%
> CCCCN(C(=O)CSCC(=O)Nc1ccc(OC)cc1)c1c(N)n(CCC)c(=O)[nH]c1=O
    4.4%	0.3	-1.0%	14.1	.	10.7%[15.4 µM]
> O=C(Nc1c(O)c2ccccc2[nH]c1=O)c1ccco1
    4.5%	0.4	0.3%	-3.2	0.4	26.9%
> COc1ccc(Cc2c(C)nn(-c3nc(C)c(C(=O)Nc4ccc(C)cc4C)s3)c2C)cc1
    .	-0.3	-11.1%	11.0	.	.
> Cc1cc(C)n(-c2ccc(S(=O)(=O)N3CCCC3)cc2[N+](=O)[O-])n1
    10.6%	-0.4	-1.8%	1.0	3.2	-50.4%[inhibitor]
> C[n+]1cccc2ccc3c(c21)OC(N)=C(C#N)C3c1ccccc1 (centres undefined)
    12.7%	1.2	.	-7.6	4.0	-11.4%[15.4 µM]
> CN(CC(=O)Nc1ccc(S(=O)(=O)N(C)C)cc1)Cc1ccc(C(F)(F)F)cc1
    -21.2%	-0.2	-0.2%	-1.2	2.0	-12.9%[15.4 µM]
> CCCSc1cc(=O)n(-c2ccc(F)cc2)nc1C(=O)OCC
    -17.8%	-0.9	.	15.1	-3.9	4.2%[15.4 µM]
> COc1ccc(S(=O)(=O)N(CC(=O)Nc2cc(C)cc(C)c2)c2ccc(Cl)cc2)cc1
    .	1.0	-6.9%	33.3	.	.
> c1ccc(C(CN2CCOCC2)c2ccccc2)cc1
    -0.7%	2.5	0.4%	-2.6	1.4	14.8%

(further entries)
The line under a structure holds: gsp antag	TRPML1 ag	ClpP mod	TRPML1 inh	Menin MLL FP FL	gsp agonist
> Cc1ccnc(-n2c(C)cc(/C=N/NC(=O)COc3cccc4cccnc34)c2C)c1
    -12.2%	-0.6	14.1µM*	2.3	-2.2	5.9%[15.4 µM]
> CC(=O)c1sc(NC(=O)C2CCCN2S(=O)(=O)c2ccccc2F)nc1C (centres undefined)
    5.0%	0.8	-8.0%	-4.0	.	?
> Cc1ccc(C(c2nnnn2Cc2cccs2)N2CCN(C(=O)c3ccco3)CC2)cc1 (centres undefined)
    3.9%	0.6	1.9%	6.0	3.6	-22.9%
> O=C(CSc1nc2c(c(=O)[nH]1)CCC2)Nc1ccccc1Cl
    -5.9%	0.1	.	-11.4	-4.2	-9.5%
> CC(=O)CSc1cc(C)nc2c(-c3ccccc3)c(C)nn12
    2.6%	-0.9	.	7.2	1.9	7.3%
> COc1ccc(NC(=O)Cn2cc(S(=O)(=O)N3CCC(C)CC3)c3ccccc3c2=O)cc1Cl
    .	0.5	-12.5%	1.4	.	.
